Screening results from PubChem BioAssay.
PKD1 kinase inh – PKD1 (human) kinase inhibition. inhibition, %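 (about 10 µM by stock and volumes)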. PKD1 kinase fluorescence polarization assay. 200,000 compounds, 0.056% hits. AID 797;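 active = inhibition of 50% or more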;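 also: controls were vehicle for no effect and a reference inhibitor for full effect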
HSV replic up – HSV replication enhancement; HSV replication augmentation in cells, fold increase; maximum fold increase; 220,000 compounds, 0.005% hits;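 active = peak rise of 1.5-fold or more in the series; tested in PC3 cells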;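 also: first round at 10 µM; read as green reporter fluorescence; hits show the peak of a series up to 25 µM; 1 = signal of infected wells without compound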
GALR2 agonist – GALR2 (human) receptor agonism. GALR2-expressing cells, agonist activation read-out. 140,000 compounds, 0.48% hits. activation, %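 (tested at 5 µM)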. O43603;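 active = above mean plus 3 SD of all compounds, about 5% in these data, not always enough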;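 also: 0% = vehicle buffer wells and 100% = reference agonist at full effect; tested in CHO reporter cells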
RGS16-Gao – modulates binding between human RGS16 and Galphao; O15492+P09471; bead-based flow cytometry RGS16-Galphao binding, fluorescence; actives lie on both sides; binding response (% of control), % at 10 µM; 220,000 compounds, 0.38% hits; AID 1441;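 active = below 25% or above 175%, edge rows of some plates excepted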;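 also: Galphao activated by GDP with aluminum fluoride before binding; 100% = wells without compound and 0% = beads without RGS; some results beyond the cut were filed as inactive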
Target sequence (O15492 whole entry, looked up): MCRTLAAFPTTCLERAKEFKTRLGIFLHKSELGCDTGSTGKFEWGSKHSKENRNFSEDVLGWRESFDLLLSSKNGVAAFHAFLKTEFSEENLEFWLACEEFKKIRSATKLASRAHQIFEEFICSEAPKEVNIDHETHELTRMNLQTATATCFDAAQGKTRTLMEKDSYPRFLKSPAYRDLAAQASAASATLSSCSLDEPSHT
Target sequence (P09471 whole entry, looked up): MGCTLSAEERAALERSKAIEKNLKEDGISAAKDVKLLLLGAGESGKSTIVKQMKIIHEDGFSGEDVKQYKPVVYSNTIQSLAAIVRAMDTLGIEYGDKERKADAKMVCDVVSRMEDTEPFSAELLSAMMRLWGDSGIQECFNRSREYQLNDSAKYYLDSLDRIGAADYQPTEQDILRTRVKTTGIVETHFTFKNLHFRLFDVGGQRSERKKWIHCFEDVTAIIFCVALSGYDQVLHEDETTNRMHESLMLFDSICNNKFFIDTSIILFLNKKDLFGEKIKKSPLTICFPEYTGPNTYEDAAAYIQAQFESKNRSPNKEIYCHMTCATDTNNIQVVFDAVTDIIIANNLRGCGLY
Insulin prom inh – TRM-6 insulin promoter activity inhibition; 130,000 compounds, 0.9% hits; AID 1273; TRM-6 cells (human fetal islet line), insulin promoter-eGFP reporter, imaging; reporter expression induced with tamoxifen; inhibition, % at 2 µM;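 active = inhibition above the mean plus 3 SD, with well images judged a real hit on visual review, cut at about 60% in these data, passing the limit was not always enough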
Insulin prom inh cell count – recorded beside Insulin prom inh, whose call it bears; normalized cell count, %; measured here: cell count, toxicity; reference of the scale not given here;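 cells exposed to compound for 48 h; stained nuclei by imaging scaled within each plate; lower means fewer cells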
HSV replic up primary fold – further read-out of HSV replic up, marked with its call; fold increase; compound at 10 µM; measured here: primary screen fold increase 10 uM; tested in PC3 cells;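 GFP signal in the first replicate; 1 = infected wells without compound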
Active calls of the source: *; i = inactive; / = not tested or not shown; [ ] = dose if it differs, or a comment. Outcome played no part in choosing rows; overall some 1.3% were active at least once.

smiles | Insulin prom inh | Insulin prom inh cell count | GALR2 agonist | HSV replic up primary fold | HSV replic up | PKD1 kinase inh | RGS16-Gao
Nc1ccc(N2CCN(c3ccc(F)cc3)CC2)cc1 | -47.1 | 80.5 | / | 0.98 | i | 8.4 | 101.0
O=C(CSc1nnc(Cn2nnc(-c3ccccc3)n2)n1-c1ccccc1)Nc1ccc(F)cc1 | -15.8 | 148.9 | -0.1 | 0.8 | i | -4.9 | 368.8
CCc1cccc(CC)c1NC(=O)COC(=O)/C(C#N)=C/c1ccc(OC)cc1 | 5.4 | 113.4 | -0.1 | 1.01 | i | -9.0 | 109.0
COc1cccc(CNC(=O)C(=O)NCC(c2ccco2)N2CCOCC2)c1 (stereo unspecified) | / | / | -2.3 | 0.95 | i | -3.4 | 122.4
Nc1ncnc(NCc2ccc(F)cc2)c1[N+](=O)[O-] | / | / | / | 0.89 | i | -2.1 | 111.8
COc1ccc(Oc2coc3cc(OC(=O)/C=C/c4ccccc4)ccc3c2=O)cc1 | 20.6 | 112.7 | -1.7 | 1 | i | 9.8 | 92.0
Cc1[nH]c(=O)[nH]c(=O)c1Cc1cccc2ccccc12 | 14.3 | 89.5 | / | 0.99 | i | 1.5 | 31.6
CC1(C)SCC(C(=O)O)N1C=O (stereo unspecified) | 17.9 | 89.4 | -0.8 | 0.9 | i | -4.5 | 102.4
CC(=O)NCC(=O)NC1(C(=O)NC2CCCC2)CCCCC1 | / | / | -2.2 | 0.86 | i | 9.6 | 100.8
O=C(C1CC1)N1CCCN(C(=O)C2CC2)CC1 | 30.8 | 111.5 | -1.8 | 1.05 | i | -7.6 | 96.5
COCC(C)NC(C(=O)Nc1ccc(C)c(Cl)c1)c1ccccc1 (stereo unspecified) | 4.3 | 40.4 | -1.9 | 1.06 | i | -1.6 | 103.7
Cc1ccc(N2C(N)=C(C#N)C(c3cccs3)C3=C2CC(C)(C)CC3=O)cc1 (stereo unspecified) | -3.5 | 160.0 | -0.7 | 0.84 | i | -1.1 | 197.2*[activator]
O=C1CCC(N2C(=O)c3ccccc3C2=O)C(=O)N1 (stereo unspecified) | -26.7 | 89.6 | / | 0.92 | i | -6.0 | 49.2
Cn1c(=O)c(C(=O)COC(=O)c2cc(C(F)(F)F)nc3ccccc23)c(N)n(Cc2ccccc2)c1=O | -40.0 | 94.9 | -0.8 | / | / | 5.7 | 104.4
O=C(CCl)Nc1ccc2c(c1)OCO2 | / | / | / | 0.94 | i | 6.6 | 101.8
Cc1cc(C(=O)NNC(=O)c2cccc(S(=O)(=O)N3CCOCC3)c2)c2ccccc2n1 | -9.1 | 127.5 | / | 1.04 | i | 3.5 | 101.4
COc1ccccc1CN=C1NC(=O)C(CC(=O)Nc2ccc(OC)c(OC)c2)S1 (stereo unspecified) | 14.3 | 172.7 | -2.0 | 0.83 | i | -5.7 | 101.9
COc1cc(CNCCCN2CCOCC2)cc(Br)c1OCc1ccc(Cl)cc1 | / | / | / | 0.76 | i | 4.3 | 97.5
C=C(C)COc1ccc(-c2ncncc2Oc2ccc(OC)cc2)c(O)c1 | 7.1 | 105.0 | -1.1 | 1.03 | i | 10.6 | 162.6
O=S(=O)(/N=C(\c1ccccc1F)N1CCCCC1)c1ccccc1 | 50.0 | 124.1 | -1.4 | 1.04 | i | -7.6 | 112.8
Cc1ccc2c(c1)C1CN(C)CCC1N2C(=S)NC(=O)c1ccc(Cl)cc1Cl (stereo unspecified) | / | / | / | 1.04 | i | / | 100.4
O=C(NC1CCCCC1)N1CCN(Cc2ccco2)CC1 | / | / | / | 1.12 | i | -8.6 | 100.2
CCC(=NCc1ccccc1)c1c(C(F)(F)F)[nH]n(-c2nc3ccccc3s2)c1=O | 20.6 | 116.9 | -2.9 | 0.82 | i | -1.9 | 104.0
CCc1ccc(OCc2nnc(SCCN3CCOCC3)n2C)cc1 | 14.3 | 127.7 | -3.1 | 0.97 | i | -17.1 | 105.7
COc1ccc(/C=C(/NC(=O)c2cccs2)C(=O)NCc2ccco2)cc1OC | / | / | / | 1.09 | i | -4.2 | 106.2

Two records picked at random from the list so far:
smiles | Insulin prom inh | Insulin prom inh cell count | GALR2 agonist | HSV replic up primary fold | HSV replic up | PKD1 kinase inh | RGS16-Gao
C=C(C)COc1ccc(-c2ncncc2Oc2ccc(OC)cc2)c(O)c1 | 7.1 | 105.0 | -1.1 | 1.03 | i | 10.6 | 162.6
Cc1ccc2c(c1)C1CN(C)CCC1N2C(=S)NC(=O)c1ccc(Cl)cc1Cl (stereo unspecified) | / | / | / | 1.04 | i | / | 100.4

New compounds follow
smiles | Insulin prom inh | Insulin prom inh cell count | GALR2 agonist | HSV replic up primary fold | HSV replic up | PKD1 kinase inh | RGS16-Gao
Cc1nc(SCC(=O)Nc2ccc3c(c2)OCCO3)c2oc3ccccc3c2n1 | -45.7 | 101.4 | -0.2 | 0.78 | i | 0.8 | 95.7
O=C(O)c1cc(N/N=C/c2ccc3c(c2)OCCO3)ccc1Cl | -15.4 | 81.7 | -1.5 | 1.01 | i | -7.4 | 107.3
COc1ccc(OC)c(-n2c(O)cnc2Nc2nc(C)cc(C)n2)c1 | 0.0 | 74.0 | 0.9 | 0.93 | i | 4.2 | 109.4
CSc1cccc(NC(N)=O)c1 | / | / | / | 0.9 | i | / | 96.8
Cc1cc(=O)oc2cc(OCC(O)CN3CCN(c4ccc(F)cc4)CC3)ccc12 (stereo unspecified) | 4.3 | 54.2 | -0.9 | 0.86 | i | 11.1 | 96.3
Cc1cc(Cl)ccc1Oc1ccc(C(N)=O)cc1[N+](=O)[O-] | -18.4 | 71.4 | -0.2 | 0.87 | i | -9.2 | 99.2
Cc1ccc(NC(=O)CN2CCN(c3ccccn3)CC2)c(Cl)c1 | 5.4 | 69.5 | -2.8 | 0.94 | i | -4.2 | 102.4
Cc1ccc(Sc2cc(C(F)(F)F)nc(N(C)C)n2)cc1 | -22.6 | 78.8 | -1.0 | 1.09 | i | -12.6 | 103.7
Cc1cccc(-c2cc(C(=O)Nc3ccc4c(c3)OCCO4)c3ccccc3n2)c1 | 3.3 | 65.8 | -2.4 | / | / | -2.2 | 86.9
CCOC(=O)C1=C2c3ccc4ccccc4c3CC(C)(C)N2C(=O)C1=O | 20.0 | 87.2 | -0.9 | 1 | i | 4.2 | 98.9
CCOC(=O)C1=C(C)Nc2nc(SCC)[nH]c(=O)c2C1c1ccncc1 (stereo unspecified) | 0.0 | 140.7 | -1.8 | 0.95 | i | -25.0 | 94.1
CC1=C(C(=O)OCc2ccccc2)C(c2ccc(C(F)(F)F)cc2)NC(=O)N1CCCCCC(=O)O (stereo unspecified) | -61.9 | 136.5 | -0.2 | 0.9 | i | -2.0 | 95.0
CCC(C)NC(=O)C1CCC(=O)N1Cc1ccc(C)cc1 (stereo unspecified) | 20.0 | 98.0 | -3.2 | 1.03 | i | -4.6 | 72.9

For convenience, part of the list above:
smiles | Insulin prom inh | Insulin prom inh cell count | GALR2 agonist | HSV replic up primary fold | HSV replic up | PKD1 kinase inh | RGS16-Gao
O=S(=O)(/N=C(\c1ccccc1F)N1CCCCC1)c1ccccc1 | 50.0 | 124.1 | -1.4 | 1.04 | i | -7.6 | 112.8
Cc1ccc2c(c1)C1CN(C)CCC1N2C(=S)NC(=O)c1ccc(Cl)cc1Cl (stereo unspecified) | / | / | / | 1.04 | i | / | 100.4
O=C(NC1CCCCC1)N1CCN(Cc2ccco2)CC1 | / | / | / | 1.12 | i | -8.6 | 100.2
CCC(=NCc1ccccc1)c1c(C(F)(F)F)[nH]n(-c2nc3ccccc3s2)c1=O | 20.6 | 116.9 | -2.9 | 0.82 | i | -1.9 | 104.0
CCc1ccc(OCc2nnc(SCCN3CCOCC3)n2C)cc1 | 14.3 | 127.7 | -3.1 | 0.97 | i | -17.1 | 105.7
COc1ccc(/C=C(/NC(=O)c2cccs2)C(=O)NCc2ccco2)cc1OC | / | / | / | 1.09 | i | -4.2 | 106.2
Cc1nc(SCC(=O)Nc2ccc3c(c2)OCCO3)c2oc3ccccc3c2n1 | -45.7 | 101.4 | -0.2 | 0.78 | i | 0.8 | 95.7
O=C(O)c1cc(N/N=C/c2ccc3c(c2)OCCO3)ccc1Cl | -15.4 | 81.7 | -1.5 | 1.01 | i | -7.4 | 107.3
COc1ccc(OC)c(-n2c(O)cnc2Nc2nc(C)cc(C)n2)c1 | 0.0 | 74.0 | 0.9 | 0.93 | i | 4.2 | 109.4
CSc1cccc(NC(N)=O)c1 | / | / | / | 0.9 | i | / | 96.8
Cc1cc(=O)oc2cc(OCC(O)CN3CCN(c4ccc(F)cc4)CC3)ccc12 (stereo unspecified) | 4.3 | 54.2 | -0.9 | 0.86 | i | 11.1 | 96.3
Cc1cc(Cl)ccc1Oc1ccc(C(N)=O)cc1[N+](=O)[O-] | -18.4 | 71.4 | -0.2 | 0.87 | i | -9.2 | 99.2
Cc1ccc(NC(=O)CN2CCN(c3ccccn3)CC2)c(Cl)c1 | 5.4 | 69.5 | -2.8 | 0.94 | i | -4.2 | 102.4
Cc1ccc(Sc2cc(C(F)(F)F)nc(N(C)C)n2)cc1 | -22.6 | 78.8 | -1.0 | 1.09 | i | -12.6 | 103.7
Cc1cccc(-c2cc(C(=O)Nc3ccc4c(c3)OCCO4)c3ccccc3n2)c1 | 3.3 | 65.8 | -2.4 | / | / | -2.2 | 86.9
CCOC(=O)C1=C2c3ccc4ccccc4c3CC(C)(C)N2C(=O)C1=O | 20.0 | 87.2 | -0.9 | 1 | i | 4.2 | 98.9
